Six1-Eya2 inh – blocks human Six1 binding to Eya2; AlphaScreen GST-Six1/His-Eya2 binding, biochemical; hits give low values; control for the full effect not named in the record; activity change, % (no concentration beside the values); 360,000 compounds, 0.56% hits; AID 651725; in the data active = activity change below about -65%; inconclusive = about -30% to -65%; inactive = above about -30%; note: % is set by controls: 0 for no effect and ±100 for the full control effect
Target sequence (O00167 whole entry, looked up): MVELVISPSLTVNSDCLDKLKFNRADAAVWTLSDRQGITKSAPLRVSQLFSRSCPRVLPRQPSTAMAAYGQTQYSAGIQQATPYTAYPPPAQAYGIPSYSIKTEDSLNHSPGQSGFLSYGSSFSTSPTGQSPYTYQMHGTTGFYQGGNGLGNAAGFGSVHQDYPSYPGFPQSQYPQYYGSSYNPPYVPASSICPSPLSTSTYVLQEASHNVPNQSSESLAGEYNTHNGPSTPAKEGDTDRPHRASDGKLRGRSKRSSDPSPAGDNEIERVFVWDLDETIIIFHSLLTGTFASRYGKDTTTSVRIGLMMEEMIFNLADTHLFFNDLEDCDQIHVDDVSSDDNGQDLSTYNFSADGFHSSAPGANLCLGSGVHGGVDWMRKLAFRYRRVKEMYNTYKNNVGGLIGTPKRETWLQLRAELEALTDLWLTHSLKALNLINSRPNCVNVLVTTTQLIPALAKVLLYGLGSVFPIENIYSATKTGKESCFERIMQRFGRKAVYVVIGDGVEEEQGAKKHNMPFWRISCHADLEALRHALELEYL
Target sequence (Q15475 whole entry, looked up): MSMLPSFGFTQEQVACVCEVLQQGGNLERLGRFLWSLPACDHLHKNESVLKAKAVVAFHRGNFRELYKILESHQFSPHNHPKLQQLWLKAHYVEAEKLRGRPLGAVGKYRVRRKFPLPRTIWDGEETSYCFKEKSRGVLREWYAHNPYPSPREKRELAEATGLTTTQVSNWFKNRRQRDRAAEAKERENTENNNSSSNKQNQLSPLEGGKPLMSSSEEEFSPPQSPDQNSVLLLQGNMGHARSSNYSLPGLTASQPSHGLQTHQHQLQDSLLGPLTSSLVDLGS
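GST-Six1 + His-Eya2 (5X stock: 250/500 nM); Tris pH 8.0, 300 mM NaCl, 0.05% BSA, 0.02% Tween 20; GSH donor/Ni acceptor beads; 1 h 37 °C dark; AlphaScreen readout.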
TRPML1 blocker – inhibitors of human TRPML1 channel; 390,000 compounds, 0.02% hits; Q9GZU1; TRPML1-inducible cells, Ca2+ dye fluorescence, FDSS; hits give low values; inhibition of EC80 agonist-evoked calcium signal; activity change, negative = inhibition, % (test concentration not listed); in the data active means activity change below about -50%; inconclusive means about -30% to -50%; inactive means above about -30%;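 note: stimulus is agonist 54-4 at its EC80 concentration; % is set by controls: 0 for no effect and ±100 for the full control effect; compound concentration not given in the record; the text of the record puts the active cut at -80%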
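Tet-induced TRPML1-DL cells loaded with Ca8 no-wash calcium dye were read kinetically on FDSS. Compound addition was followed by EC80 agonist 54-4 (4 uM final); inhibition was read over 110 s.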
CtBP-E1A inh – inhibitors of CtBP/E1A interaction; AlphaScreen GST-E1A/His-CtBP binding, 1536-well; hits give low values; control for the full effect not named in the record; activity change, % (test concentration not listed); 340,000 compounds, 0.49% hits; in the data active means activity change below about -65%; inconclusive means about -30% to -65%; inactive means above about -30%; note: % is set by controls: 0 for no effect and ±100 for the full control effect
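In 5 uL wells, 23 nL compound meets equimolar GST-E1A and His-CtBP (5X stock 125 nM each) for 2 h, 37 °C. Beads (5X, 50 ug/mL) then 1 h, 37 °C, dark.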
TRPV1 potentiator – enhances activation of the human vanilloid receptor TRPV1 | TRPV1-expressing cells, Fluo-8 calcium influx, capsaicin EC20 potentiation; host cell line not named in the record; control for the full effect not named in the record | potentiation, % at 8.33 µM | 320,000 compounds, 0.02% hits; active means potentiation above 80%; inconclusive means 30% to 80%; inactive means below 30%; note: 0% is about no effect
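TRPV1-expressing cells were cultured overnight at 35.5C and loaded with Fluo-8 calcium dye for 40 to 90 min at room temperature. After a 10 s baseline, compound was added and calcium influx was read kinetically for 3 min (ex 480/em 520 nm).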
TRPML1 agonist – agonists of human TRPML1 channel; TRPML1-expressing cells, Ca2+ dye fluorescence, FDSS; host cell line not named in the record; reference of the full effect not given here; AID 624414; activation, % (no concentration beside the values); Q9GZU1; 410,000 compounds, 0.12% hits; in the data active = activation above about 50%; inconclusive = about 30% to 50%; inactive = below about 30%; note: 0% is about no effect; the text of the record puts the active cut at 80%
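TRPML1-DL cells, Tet-induced overnight (~16 h, 37 degrees C), loaded 45-90 min at room temperature with Ca8 no-wash calcium dye plus quencher. FDSS fluorescence: 10 s baseline, compound pin-transfer, 110 s agonist read, then EC80 54-4 (4uM final) and 110 s antagonist read.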
D2 potentiator – positive allosteric modulators of human D2 dopamine receptor. potentiation, % (test concentration not listed). 360,000 compounds, 0.23% hits. P14416. DiscoveRx D2 beta-arrestin cells, luminescence, 90 min; 100% = 57 uM dopamine signal; active = potentiation of 50% or more; inconclusive = 30% to 50%; inactive = 30% or less;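 note: compound concentration not given in the record; tested on top of an EC20 dose of dopamine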
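D2 cells co-treated with compound plus 50 nM dopamine (EC20) for 90 min at 37 deg C to detect potentiation. Beta-arrestin recruitment was read as enzyme-fragment luminescence after 1 h at ambient temperature. Full response was set by 57 uM dopamine.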
* hit, by the source's call; ? = inconclusive; nt = no result given.

SMILES	Six1-Eya2 inh	TRPML1 blocker	CtBP-E1A inh	TRPV1 potentiator	TRPML1 agonist	D2 potentiator
CCC(=O)[C@@]1(C)[C@H](C)C[C@H]2[C@@H]3CCC4=CC(=O)C=C[C@]4(C)[C@H]3[C@@H](O)C[C@@]21C	2	-4	8	8	0.2	0
Cc1noc(C)c1S(=O)(=O)NC(=O)C1(C)CCN1C(=O)Cc1ccc(-c2ccccc2)cc1 (stereo unspecified)	0	nt	3	nt	-0.2	-1
CN(C)/N=C/C=C1\CCC/C(=C\c2ccc(F)c(F)c2)C1=O	5	7	21	-7	2.0	-7
OCCN=Cc1c(O)[nH]c2ccccc12	-2	-10	-2	-1	-0.4	-1
COc1cccc(CN2CCN(Cc3ccc(O)cc3)CC2CCO)c1 (stereo unspecified)	3	28	nt	3	4.3	-68
O=C(NC(=S)Nc1ccc(N2CCOCC2)cc1)c1cccc(Cl)c1	?	7	-8	6	-0.2	-14
COc1ccc(-c2cc3ccccc3cn2)cc1	16	2	17	-35	-1.1	-13
CCNc1nc(N)nc(-c2cc(Cl)ccc2O)n1	3	32	-1	3	0.5	4
CCOC(=O)C1=C(O)/C(=C\c2ccc(CNC(=O)C(=O)Nc3ccccc3)o2)N=C1C	-7	9	-3	1	5.3	18
CC(C)=CCC/C(C)=C/CNC(=O)C[C@H]1C[C@H](C(=O)N2CCCCC2)[C@@]2(CCc3ccccc3)c3[nH]c4cc(-c5ccco5)ccc4c3CCN2C1=O	-9	-16	-7	nt	2.7	1
Cc1ccccc1OC(C)C(=O)NC1CCCC1 (stereo unspecified)	2	5	4	-44	-0.5	-10
COCc1[nH]nc2c1C1(CCSCC1)C(C#N)=C(N)O2	1	3	7	23	-0.3	0
C=C[C@]1(C)C=C2C(=O)C[C@H]3C(C)(C)CCC[C@]3(C(=O)O)[C@@]2(O)CC1	6	24	9	nt	0.4	-9
COc1ccc2c(c1)CCc1c(C(=O)NCc3cccnc3)noc1-2	1	0	-19	17	-0.5	3
Cc1ccc(S(=O)(=O)N2CCC(C(=O)NCCCn3ccnc3)CC2)cc1	4	1	-5	6	-0.2	4
O=C1CCCc2ccccc2N1Cc1ccc(F)cc1	5	-11	16	18	1.2	-5
Cc1c(C)c2cc(Cl)c(O)c(CN3CCN(C)CC3)c2oc1=O	-2	-21	-2	6	1.5	-6
CC1CC(C)CN(C(=O)COC(=O)CCc2nc3ccccc3c(=O)[nH]2)C1 (stereo unspecified)	4	15	7	-5	0.5	-14
Cc1nc(-c2cccc(C(F)(F)F)c2)sc1C(=O)O	6	25	12	4	0.4	-15
C=CCc1cc(Cl)ccc1OCCNCCN1CCOCC1	8	-27	-12	-16	-0.7	-10
CCc1ccc(OCC(=O)O/N=C(\N)Cc2ccc([N+](=O)[O-])cc2)cc1	-8	33	nt	2	1.1	0
CC(=O)OC1C([N+]2(C)CCCCC2)C[C@H]2C3CC[C@H]4C[C@H](OC(C)=O)C([N+]5(C)CCCCC5)CC4(C)[C@H]3CCC12C (stereo partly specified)	-6	-4	2	nt	0.1	-1
CCOc1ccc(S(=O)(=O)N2CCC(C(=O)Nc3cc(S(C)(=O)=O)ccc3Cl)CC2)cc1	-9	5	nt	3	-0.4	-22
COc1ccc(CCNC(=O)Cn2c(=O)n(-c3ccc(F)cc3)c(=O)c3sccc32)cc1OC	3	8	6	-9	1.6	5
COc1ccccc1C(=O)OCCN1CCOCC1	2	-8	11	6	0.4	1
O=C(O)CN1CCCC1=Nc1ccccc1	2	1	4	-2	0.6	4
O=C(NCc1cccnc1)c1cc(C2CCCN(C(=O)C3CCCCC3)C2)on1 (stereo unspecified)	3	nt	1	nt	-0.6	6
O=c1[nH]c(SCc2ccccc2F)nc2ccccc12	1	-9	20	19	2.8	-2
COc1ccc(CCNC2CCN(C)CC2)cc1OC	5	-10	1	12	0.1	-17
C=CCNC(=O)NC(=O)COC(=O)C(C)Oc1ccc(Cl)cc1Cl (stereo unspecified)	-2	-7	-8	1	-0.7	-28
CCOc1ccc(N2CC(C(=O)Nc3ccc(N4CCOCC4)cc3)CC2=O)cc1 (stereo unspecified)	24	79	2	7	0.5	-13
S=c1[nH]nc(C2CCCCC2)n1/N=C/c1ccc(Br)s1	-10	-14	-1	-16	1.2	-13
COc1ccc(/C=C(\C#N)C(=O)Nc2ccccn2)cc1	-1	5	9	8	0.7	-4
Cc1cc(C)nc(N(C#N)CCOc2ccccc2)n1	2	14	-4	-6	2.9	-12
Cc1cc(N2CCCC2)ccc1NC(=O)COc1ccc(Cl)cc1	-13	29	-5	nt	7.6	-5
Cc1ccc(NC(=O)CSc2nc3sc(C)cc3c(=O)n2C)cc1	-17	15	-5	8	3.4	-4
O=C(COc1ccccc1Cl)N1CCN(c2ccc([N+](=O)[O-])c(N3CCOCC3)c2)CC1	-16	-2	-26	-5	0.5	-14
COc1ccc2oc(=O)cc(CN3CCN(Cc4ccc(OC)c(OC)c4OC)CC3)c2c1	-3	nt	3	-1	nt	-22
CC(=O)N1CCSc2ccc(S(=O)(=O)NCCc3ccc(Cl)cc3)cc21	2	50	3	1	0.0	-16
O=C(O)C=C(Br)Br	7	nt	-2	-2	nt	-14

Quoted at random: 4 compounds from above
SMILES	Six1-Eya2 inh	TRPML1 blocker	CtBP-E1A inh	TRPV1 potentiator	TRPML1 agonist	D2 potentiator
CC(=O)N1CCSc2ccc(S(=O)(=O)NCCc3ccc(Cl)cc3)cc21	2	50	3	1	0.0	-16
CCc1ccc(OCC(=O)O/N=C(\N)Cc2ccc([N+](=O)[O-])cc2)cc1	-8	33	nt	2	1.1	0
COc1ccc(CCNC(=O)Cn2c(=O)n(-c3ccc(F)cc3)c(=O)c3sccc32)cc1OC	3	8	6	-9	1.6	5
Cc1cc(N2CCCC2)ccc1NC(=O)COc1ccc(Cl)cc1	-13	29	-5	nt	7.6	-5

Ordered by molar mass (smallest number first): some entries from above
SMILES	Six1-Eya2 inh	TRPML1 blocker	CtBP-E1A inh	TRPV1 potentiator	TRPML1 agonist	D2 potentiator
O=C(O)CN1CCCC1=Nc1ccccc1	2	1	4	-2	0.6	4
CCc1ccc(OCC(=O)O/N=C(\N)Cc2ccc([N+](=O)[O-])cc2)cc1	-8	33	nt	2	1.1	0
CCC(=O)[C@@]1(C)[C@H](C)C[C@H]2[C@@H]3CCC4=CC(=O)C=C[C@]4(C)[C@H]3[C@@H](O)C[C@@]21C	2	-4	8	8	0.2	0

The list goes on.
SMILES	Six1-Eya2 inh	TRPML1 blocker	CtBP-E1A inh	TRPV1 potentiator	TRPML1 agonist	D2 potentiator
CCOC(=O)c1cc(-c2ccccc2)sc1NC(=O)CSc1nnnn1C	-4	17	-3	-2	3.9	-9
COc1ccc(NC(=O)CSc2ccc(NC(C)=O)cc2)cc1S(=O)(=O)N1CCCCC1	-3	1	5	-5	-0.3	6
CC1(C)CC(=O)C=C(NCCc2ccccc2)C1	4	-14	-5	?	-0.6	-2
Oc1ccc(-c2csc(-c3c[nH]c4ccccc34)n2)c(O)c1	-11	24	-6	-2	1.5	-12
O=C(COC(=O)c1cc(=O)[nH]c2ccccc12)Nc1ccc(Cl)c(S(=O)(=O)N2CCOCC2)c1	?	-8	9	nt	0.7	-20
CCCc1cc(=O)oc2cc(OCC(=O)Nc3cc(C)on3)ccc12	4	6	4	-1	-0.4	10
Cc1cc(C)c(C#N)c(N2CCN(c3ccccc3)CC2)n1	3	1	0	-14	1.3	2
CCN(C(=O)COC(=O)c1ccc(-n2c(C)ccc2C)cc1)c1c(N)n(Cc2ccccc2)c(=O)[nH]c1=O	0	-2	-1	nt	0.4	-8
Nc1cccc(Oc2ccc([N+](=O)[O-])cc2)c1	0	-7	3	1	3.3	-3
NC(=O)c1cc([N+](=O)[O-])ccc1NCc1cccc([N+](=O)[O-])c1	8	21	-22	?	0.9	-3
O=c1[nH]c(C2CCN(S(=O)(=O)/C=C/c3ccccc3)CC2)nc2c1nnn2Cc1ccc(F)cc1	-11	1	-5	6	6.4	1
CC(C)NS(=O)(=O)c1ccc(OCC(=O)Nc2cccc3ccccc23)cc1	-2	1	-9	6	0.5	6
NC(=O)CC(NC(=O)c1ccc(Br)cc1)c1ccc(N2CCC(Cc3ccccc3)CC2)c([N+](=O)[O-])c1 (stereo unspecified)	-4	23	-22	3	-0.2	-1
Cc1cc2c(cc1C)N(C(=O)CSC1=NCCS1)C(C)(C)c1ssc(=S)c1-2	?	38	?	8	-0.2	-7
O=C(Nc1nc(-c2ccc(F)c(F)c2)cs1)Nc1ccc(F)cc1F	2	-17	-16	-4	0.5	-18
O=C(N/N=C/c1ccccc1[N+](=O)[O-])c1ccc(COc2ccccc2-c2ccccc2)cc1	-16	11	-8	0	0.6	-1
O=C(COc1ccc(Cl)cc1)Nc1ccccc1CO	7	12	-1	-15	-0.1	-6
COCCNC(=S)N1CCN(c2nc(-c3cccc(OC)c3)cs2)CC1	-13	-2	-12	-22	-0.3	-5
COc1ccc(-c2cc(-c3ccc(OC)cc3)[nH]n2)cc1	-6	-13	-10	2	1.8	-3
O=C(O)c1c2c(nc3ccccc13)/C(=C/c1ccc(O)cc1)CC2	?	-18	nt	?	2.4	13
COc1ccc(COC(=O)C2=C(C)NC(=O)NC2c2ccccc2)cc1 (stereo unspecified)	0	42	3	12	0.9	11
CC(C)NC(=O)CN(C)S(=O)(=O)c1ccc(F)cc1	12	56	-3	-1	-0.1	-9
COCC(C)OC(=O)c1c(N)n(-c2ccc(OC)c(OC)c2)c2nc3ccccc3nc12 (stereo unspecified)	-4	-5	nt	nt	0.7	7
CCCN(CC(=O)Nc1ccc(F)c(F)c1F)CC(=O)Nc1c(C)n(C)n(-c2ccccc2)c1=O	7	-7	1	-21	2.1	-18
N#CC1=C(N)Oc2n[nH]c(-c3ccccc3)c2C1c1cccc(OC(=O)N2CCOCC2)c1 (stereo unspecified)	-3	9	4	3	-0.1	-18
CN(CC(=O)Nc1ccc(F)c(F)c1F)C(=O)C1CCCC1	4	12	7	2	-0.1	-2
COc1ccc(Nc2c3c(nc4ccccc24)CCC3)cc1	?	12	-20	-24	1.3	-11
O=C(c1cccc(C(=O)N2CCN(c3ccccc3F)CC2)c1)N1CCN(c2ccccc2F)CC1	0	-9	-2	16	1.6	-15
CCC(C)Nc1nc(OC(C(F)(F)F)C(F)(F)F)nc(OC(C(F)(F)F)C(F)(F)F)n1 (stereo unspecified)	12	37	0	-4	-0.9	-2
COCCNC(=O)CSc1nc2ccccc2c(=O)n1CCC(=O)N1CCN(c2ccccc2)CC1	6	-6	-3	0	0.1	-10
CC12CCC(C(N)=O)(C1Br)C2(C)C (stereo unspecified)	7	-2	-11	-2	0.3	8
Cc1cccc(CSCCNC(=O)CN2C(=O)c3ccccc3S2(=O)=O)c1	1	12	0	-7	1.4	4
COc1cc(CCC(=O)OCC(=O)Nc2ccccc2C#N)cc(OC)c1OC	5	-22	nt	2	1.4	-10
Cc1nc(SCC(=O)N2CCN(C(=O)c3cccs3)CC2)c2c(C)c(C)sc2n1	9	0	0	-17	1.6	-15
CCOC(=O)c1c(C)[nH]c(C(=O)Nc2cc(OCC)c(N3CCOCC3)cc2OCC)c1C	1	13	-2	1	0.0	0
COc1cccc(OC)c1OCCCCc1c(C)n[nH]c1C	3	-13	-7	-8	1.2	9
O=C(NCc1ccc(F)cc1)Nc1cccc(Cl)c1	14	12	-1	-12	1.1	-12

Screens as filed in PubChem BioAssay.
